# From PubChem
# KCNQ2 block: KCNQ2 potassium channel inhibitors, primary screen, cell-based, CHO-K1, FluxOR thallium flux, B-score (AID 2156). O88943. 20 min; active compounds read low; only compounds with negative scores are shown here; some inactives read as strong as hits. B-score at 10 µM. 310,000 compounds, 1.1% hits;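 active = fluorescence ratio B-score at most minus 3 library SDs, with starting brightness B-score within 2 library SDs, cut at about -5.5 in these data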
# Target sequence (O88943 whole entry, looked up): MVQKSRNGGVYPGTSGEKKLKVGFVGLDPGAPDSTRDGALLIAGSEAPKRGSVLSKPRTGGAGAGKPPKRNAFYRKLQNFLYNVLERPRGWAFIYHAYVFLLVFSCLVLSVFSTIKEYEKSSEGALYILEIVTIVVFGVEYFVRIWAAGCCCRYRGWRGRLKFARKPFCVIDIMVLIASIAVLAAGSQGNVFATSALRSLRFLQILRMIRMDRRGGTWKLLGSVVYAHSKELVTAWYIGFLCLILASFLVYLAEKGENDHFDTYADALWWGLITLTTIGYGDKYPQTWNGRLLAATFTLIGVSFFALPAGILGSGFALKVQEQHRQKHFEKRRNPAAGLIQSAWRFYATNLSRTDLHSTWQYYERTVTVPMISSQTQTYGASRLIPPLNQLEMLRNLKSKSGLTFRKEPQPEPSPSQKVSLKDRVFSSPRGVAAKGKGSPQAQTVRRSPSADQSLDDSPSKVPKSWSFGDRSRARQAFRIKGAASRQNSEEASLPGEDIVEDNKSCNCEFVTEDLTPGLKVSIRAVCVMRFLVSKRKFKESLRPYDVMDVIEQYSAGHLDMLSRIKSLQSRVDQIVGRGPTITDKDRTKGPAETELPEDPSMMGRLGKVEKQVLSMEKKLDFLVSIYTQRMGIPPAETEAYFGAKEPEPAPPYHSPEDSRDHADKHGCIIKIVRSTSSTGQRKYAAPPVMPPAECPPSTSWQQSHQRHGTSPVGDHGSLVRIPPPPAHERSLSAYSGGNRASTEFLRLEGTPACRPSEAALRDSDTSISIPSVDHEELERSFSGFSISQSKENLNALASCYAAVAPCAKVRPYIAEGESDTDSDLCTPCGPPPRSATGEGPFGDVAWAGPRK
# KCNQ2 block baseline: second read-out of KCNQ2 block, no call of its own (marks repeat the call); B-score; measured here: initial fluorescence intensity artifact check;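 brightness before thallium and not channel activity; 0 = typical well and far values either way flag optical interference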
# * marks the source's active call; other numbers are inactive results; i = inactive.
Compound,KCNQ2 block,KCNQ2 block baseline
COC1=CC=C2[C@H]3Cc4ccc(OC)c5c4[C@@]2(CCN3C)[C@H]1O5,i,-0.5
CCCc1nc2ccccc2c(=O)n1-c1ccc(OC)cc1,i,0.17
O=C1CCCN1C(=O)c1cncc(Br)c1,i,-0.03
O=C(/C=C/c1ccccc1)NCCc1cnc[nH]1,i,2.22
CCOC(=O)C(O)(c1ccc(NC(=O)NC)cc1)C(F)(F)F (stereo not drawn),i,-1.66
CC(=O)C1C(=O)NC23CCCCC2C1c1ccccc1O3 (stereo not drawn),i,0.75
Nc1c2c(nc3sc4c(c13)CCCCC4)CCCC2,i,-1.37
Cc1ccc(-n2c(O)c(/C=N/NC(=O)c3ccncc3)c(=O)[nH]c2=O)cc1,i,-0.17
N#CC1=C(N)Oc2c(c(=O)oc3ccccc23)C1c1cccnc1 (stereo not drawn),i,2.29
C=CCn1c(O)c(C=NC2CCN(Cc3ccccc3)CC2)c(=O)[nH]c1=O,i,-1.48
CC(=O)c1cn(Cc2ccc(F)cc2)c2ccccc12,i,0.38
CCN(CC)P(c1n(C)cc[n+]1C)N(CC)CC,i,0.96
COc1ccc(C(=O)C2(C)N(O)C(C)C(c3cccs3)=[N+]2[O-])cc1 (stereo not drawn),i,1.98
Cc1ccc(NP(=O)(Oc2ccccc2F)Oc2ccccc2F)cc1C,i,-5.73
COc1ccccc1CC(=O)N1CCN(CCc2ccccc2)CC1,i,-0.57

# The list goes on:
Compound,KCNQ2 block,KCNQ2 block baseline
O=c1c2ccccc2ncn1-c1ccc([N+](=O)[O-])c(C(F)(F)F)c1,i,-0.06
CCOC(=O)C1SC2(C(F)(F)C(F)F)CC1(O)c1c(c(OC)c3occc3c1OC)O2 (stereo not drawn),i,0.29
O=c1[nH]c(=O)n(CCC2=CCCCC2)c(O)c1/C=N/Nc1cccc2ccccc12,i,-1.25
Cc1cccc(-n2c(-c3ccc([N+](=O)[O-])cc3)nc3ccccc3c2=O)c1,i,-0.48
CC(C(=O)Nc1ccc(Br)cc1C(=O)c1ccccc1)N1CCCCC1 (stereo not drawn),i,0.18
Oc1ccccc1-[n+]1c(-c2ccccc2)cc(-c2ccccc2)c(O)c1-c1ccccc1,i,-0.7
O=C(N/N=C1/CN2CCC1CC2)c1cc2ccccc2cc1O,i,-0.01
CC(C)Cn1cc(C(=O)N2CCC3(CC2)OCCO3)c2c3ccccc3n(C)c2c1=O,i,0.64
CCCCCn1c(=O)c(C(=O)NC(C)c2ccccc2)c(O)c2ccccc21 (stereo not drawn),i,0.51
O=C(COc1ccccc1Cl)N1CCCC(N2CCN(c3ccc(F)cc3)CC2)C1 (stereo not drawn),i,0.09
Cc1c(CC(=O)N2C[C@H]3C[C@@H](C2)c2cccc(=O)n2C3)c(=O)oc2c(C)c(O)ccc12,i,-0.01
Cc1ccc(-n2c(O)c(C=Nc3ccc(S(N)(=O)=O)cc3)c(=O)[nH]c2=O)cc1,i,0.26
CN(C)C(Cc1ccccc1)C(=O)c1ccc(-c2ccccc2)cc1 (stereo not drawn),i,1.34
CC(=NCC1CCCO1)c1c(O)n(-c2ccccc2C)c(=O)[nH]c1=O (stereo not drawn),i,0.08
CCCOC(=O)c1ccc(-[n+]2c(-c3ccccc3)cc(-c3ccccc3)cc2-c2ccccc2)cc1,-6.93*,-0.01*

# Additional entries follow:
Compound,KCNQ2 block,KCNQ2 block baseline
Cc1cc(O)c2c(c1)OC(C)(C)C1=C2CC(C)CC1 (stereo not drawn),-7.33*,-0.04*
O=C(CN1C(=O)CN=C(c2ccccc2Cl)c2cc(Cl)ccc21)NCc1ccco1,i,-1.57
C[N+]12CN3CN(CN(C3)C1)C2,i,1.99
Cc1noc(C)c1CC(=O)N1CCCC(N2CCN(c3ccccc3F)CC2)C1 (stereo not drawn),i,-0.03
CC1CCCC(C)N1/N=C/c1c[nH]c2ccc(Br)cc12 (stereo not drawn),i,-1.38
CCN1C[C@]2(C)CC[C@H](OC)[C@]34C2[C@H](OC(C)=O)[C@@]2(OCO[C@@]25C[C@H](OC)[C@H]2C[C@]3(O)C5[C@H]2OC)[C@@H]14,i,2.82
O=C1NC(=O)N(c2ccc3c(c2)OCO3)C(=O)/C1=C/c1ccc(N2CCCCC2)o1,i,7.87
CCN1CCN(Cc2ccccc2C)CC1,i,0.32
COc1ccc(C(=O)C2CCCN(Cc3ccon3)C2)c(OC)c1 (stereo not drawn),i,1.81
Cc1ccc(O)c(C(=O)c2cc(C(=O)NCCC(C)C)c(=O)n(CCC(C)C)c2)c1,i,-0.29
CCOc1ccc(-c2cc(C)[n+](CCN(CC)CC)c(-c3ccc(OCC)cc3)c2)cc1,i,0.06
C[C@]12CCC3C(CC[C@H]4C[C@H](N)CC[C@]34C)C1CC[C@H]2O (stereo partly drawn),i,1.39
Cc1ccc(C(=O)C2CN(C)CC2C(=O)c2ccc(C)cc2)cc1 (stereo not drawn),i,0.87
CC(C)(C)P(=O)(NCc1ccccc1)c1ccccc1 (stereo not drawn),i,0.27
COc1cc(/C=C/[N+](=O)[O-])ccc1O,-7.11*,-3.2*

# Remaining list, next part
Compound,KCNQ2 block,KCNQ2 block baseline
COC(=O)C1=C(c2ccccc2)C[C@@H]2CC[C@H]1N2C(=O)NC1CC1,i,-0.86
CCCCC(=O)N/N=C/c1c(O)n(-c2cccc3ccccc23)c(=O)[nH]c1=O,i,0.83
CN1C(=O)C(=Cc2ccc(N3CCOCC3)o2)C(=O)N(C)C1=O,i,8.86
Cc1cc(C=C2C(=O)NC(=S)NC2=O)c(C)n1-c1ccc2c(c1)OCO2,i,-1.22
Cc1nc2cc(C(F)(F)F)ccc2n1C1CCN(Cc2nnnn2CCc2ccccc2)CC1,i,0.86
CC(Cc1ccccc1)NC(=O)c1ccc(N)cc1 (stereo not drawn),i,0.51
CC(C)(C)c1ccc(C(=O)C2CCCN(C3CCC3)C2)cc1 (stereo not drawn),i,-0.25
Cc1ccc(-n2c(C)cc(/C=C3\C(=O)NC(=O)N(C)C3=O)c2C)cc1C,i,-1.14
CCN1CCN(Cc2nnnn2C(C)(C)C)CC1,i,1.5
COc1ccc(OC)c(N2C(=O)CC(=O)NC2=O)c1,i,1.54
O=C(Nc1ccccc1OC(=O)N1CCOCC1)N1CCOCC1,i,-0.71
CCCCn1c(=O)c(C(=O)Nc2ccccc2F)c(O)c2ccccc21,i,1.06
Oc1ccccc1CN(CCc1ccccc1)Cc1ccccc1,-6.05*,-0.71*
CC(C)CCN1CCN(Cc2c(F)cccc2Cl)CC1CCO (stereo not drawn),i,0.29
c1ccc(CN2CCN(Cc3ccc4c(c3)OCCO4)CC2)cc1,i,4.9

# One compound at a time, as listed above. Order of values: KCNQ2 block, KCNQ2 block baseline
# CCCCC(=O)N/N=C/c1c(O)n(-c2cccc3ccccc23)c(=O)[nH]c1=O reads i, 0.83
# CN1C(=O)C(=Cc2ccc(N3CCOCC3)o2)C(=O)N(C)C1=O reads i, 8.86
# COc1ccc(OC)c(N2C(=O)CC(=O)NC2=O)c1 reads i, 1.54
# Cc1cc(C=C2C(=O)NC(=S)NC2=O)c(C)n1-c1ccc2c(c1)OCO2 reads i, -1.22

# Retrieved by compound from the list above (two):
Compound,KCNQ2 block,KCNQ2 block baseline
Oc1ccccc1CN(CCc1ccccc1)Cc1ccccc1,-6.05*,-0.71*
CCN1CCN(Cc2nnnn2C(C)(C)C)CC1,i,1.5

# Next section.
Compound,KCNQ2 block,KCNQ2 block baseline
COc1ccc(-c2nc3ccccc3c(=O)n2-c2nccs2)cc1,i,-3.34
CCCCCCC(=O)N/N=C/c1c(O)n(C2CC2)c(=S)[nH]c1=O,i,1.9
CC(=O)c1ccc(OC(NC(=O)c2ccco2)C(Cl)(Cl)Cl)cc1 (stereo not drawn),i,-1.31
CN1CCN(c2cc(N3CCCCCC3)c(F)cc2[N+](=O)[O-])CC1,i,-0.54
COc1cc(/C=C/c2nc3ccccc3c(=O)n2-c2cccc(O)c2)ccc1O,i,-0.02
COc1ccc(Oc2c(C)oc3cc(OC(=O)N(C)C)ccc3c2=O)cc1,i,1.54
Cc1c2cnn(CC(=O)N3CCC4(CC3)OCCO4)c(=O)c2c(C)n1Cc1ccccc1Cl,i,0.51
CC(Cc1ccccc1)NC(=O)/C=C/c1ccc(Cl)cc1 (stereo not drawn),i,-0.22
COc1ccc(OC)c(-n2c(O)c(/C=C3\C=Nc4ccccc43)c(=O)[nH]c2=O)c1,i,-0.55
COc1ccc(NC(c2ccccc2F)P(=O)(Oc2ccccc2)Oc2ccccc2)cc1 (stereo not drawn),i,2.46
Cc1cccc(N2C(=O)NC(=O)/C(=C\c3cnn(-c4ccccc4)c3)C2=O)c1,i,1.09
N#Cc1ccccc1Cn1cc(C(=O)c2cccs2)c2ccccc21,i,0.01
COc1ccc(CC(C)NCCC(c2ccccc2)c2ccccc2)cc1 (stereo not drawn),i,-0.02
CCN(CC)c1ccc(/C=C2\C(=O)NC(=S)N(C)C2=O)o1,i,7.32
CC(C)N1C(=O)/C(=C/C=C/c2ccco2)C(=O)N(Cc2ccco2)C1=O,i,1.16

# (cont.)
Compound,KCNQ2 block,KCNQ2 block baseline
C=C1N2CCC(CC2)C1(O)c1ccc(C)cc1 (stereo not drawn),i,-1.74
CNC(=O)O/N=C(\N)Cc1csc2ccccc12,i,0.99
C=C1C(O)(c2ccccc2)C2CC[N+]1(C)CC2 (stereo not drawn),i,-0.02
O=c1c2ccccc2nc(-c2ccccc2Cl)n1-c1ccc(O)cc1,i,1.29
COc1ccc(-n2nc(C(=O)NCC(=O)N3CCC4(CC3)OCCO4)c3ccccc3c2=O)cc1Cl,i,1.16
OCCNCCc1c[nH]c2ccc(OCc3ccccc3)cc12,i,-0.51
CC(C)c1onc(C(=O)N2CCC3(CC2)OCCO3)c1[N+](=O)[O-],i,0.21
CN1CCN(c2ccc(C(N)=O)cc2[N+](=O)[O-])CC1,i,-0.2
Nc1cc(C(=O)Nc2ccc(Cl)cc2)ccc1N1CC2CC(C1)c1cccc(=O)n1C2 (stereo not drawn),i,-0.99
COc1cccc(N2C(=O)/C(=C/c3ccc(C)o3)C(=O)NC2=S)c1,i,1.75
COc1ccc2ccccc2c1CNCCc1ccccc1,i,-1.24
FC(F)(F)c1cccc(NC2=NCCCS2)c1,i,1.71
C[C@@]12N[C@@H](Cc3ccccc31)c1ccccc12,i,1.26
Cc1ccsc1C(=O)C1CCCN(Cc2ccc(O)cc2)C1 (stereo not drawn),i,-0.2
c1cnc(N2CCNCC2)nc1,i,0.39

# (listing goes on)
Compound,KCNQ2 block,KCNQ2 block baseline
COc1ccc(CNC(=O)CCC(=O)N2C[C@H]3C[C@H](C2)c2cccc(=O)n2C3)cc1,i,0.75
O=C1CN=C(c2ccc(Br)cc2)c2c(sc3c2CCCC3)N1CCN1CCCCC1,i,1.97
CSc1nc2ccc(C)cc2c(=O)n1-c1cccnc1,i,-0.57
Cc1ccc(C2NC(=S)NC(c3ccc(C)cc3)C23C(=O)NC(=O)NC3=O)cc1 (stereo not drawn),i,-0.53
CCCOC(=O)c1c(N)n(Cc2cccs2)c2nc3ccccc3nc12,i,0.33
COc1cccc(-c2nc3ccc(N4CCN(C)CC4)cc3[nH]2)c1,i,0.5
Cc1ccc(S(=O)(=O)N[C@@H](CCCCN)C(=O)CCl)cc1,i,-0.18
C=CCN1C(=O)NC(=O)/C(=C/c2ccc(OC)c(CSc3ccccn3)c2)C1=O,i,0.52
Cc1ccc(CN2CCCC(C(=O)c3sccc3C)C2)o1 (stereo not drawn),i,-0.1
CN1CCN(c2ccc3nccnc3c2)CC1,i,0.06
Cc1ccc2cccc(OC(=O)N(C)c3ccccc3)c2n1,i,0.67
CC(=NCc1ccc2c(c1)OCO2)c1c(O)n(-c2ccccc2)c(=O)[nH]c1=O,i,-0.59
O=C1N[C@H](Cc2ccccc2)C(=O)N2[C@@H]3[C@H](C[C@@H]12)c1ccccc1N3OOSc1ccccc1,i,-1.16
Cc1ncc(CN2CCCC(C(=O)c3sccc3C)C2)s1 (stereo not drawn),i,-0.53
Cc1oc(-c2cccs2)nc1CSCC(=O)N1CCC2(CC1)OCCO2,i,-0.28

# 3 structures already listed, arranged by number of heavy atoms, smallest number first.
Compound,KCNQ2 block,KCNQ2 block baseline
Cc1ccc2cccc(OC(=O)N(C)c3ccccc3)c2n1,i,0.67
CC(=NCc1ccc2c(c1)OCO2)c1c(O)n(-c2ccccc2)c(=O)[nH]c1=O,i,-0.59
Cc1ccc(C2NC(=S)NC(c3ccc(C)cc3)C23C(=O)NC(=O)NC3=O)cc1 (stereo not drawn),i,-0.53

# New compounds follow.
Compound,KCNQ2 block,KCNQ2 block baseline
c1cncc(CNCCc2ccc3c(c2)OCO3)c1,i,-0.68
CCN1C(=O)c2ccccc2Sc2ccc(C(=O)N3CCC4(CC3)OCCO4)cc21,i,0.12
COc1ccc(-n2c(O)c(C(C)=NCCN3CCNCC3)c(=O)[nH]c2=O)cc1,i,0.87
Clc1ccc2c(c1)C(c1ccccc1Cl)=NCc1nnc(N3CCN(CCSc4ccccc4)CC3)n1-2,i,1.15
O=C(CN1CC=C(c2ccccc2)CC1)Nc1cc(Cl)ccc1Cl,i,-0.37
Cc1ccc(-n2c(O)c(C=NCc3ccco3)c(=O)[nH]c2=S)cc1C,i,0.02
CC(c1ccc(F)cc1)n1cc(C(=O)NCc2ccc3c(c2)OCO3)nn1 (stereo not drawn),i,0.28
COc1cc2c(c(OC)c1)C(=O)OC(C)CCCC(=O)CCCCC2 (stereo not drawn),i,-1.09
CCN1C(=O)NC(=O)/C(=C\c2cn(CC(=O)N3CCCC3)c3ccccc23)C1=O,i,12.5
CCN(CC)c1ccc(N=Cc2c(O)n(-c3ccc(OC)cc3)c(=O)[nH]c2=O)cc1,i,0.01
N=C1c2ccccc2CN1NC(=O)c1ccc(F)cc1,i,-0.44
COC(=O)C1=C(c2cc3ccccc3s2)C[C@@H]2CC[C@H]1N2C(=O)NC(C)C,i,-1.2
CC(=O)n1cc(C=C2C(=O)NC(=O)NC2=O)c2ccccc21,i,-0.06

# These rows are one share of the data; rates above refer to the full screens.
